CSC inhib = cancer stem cell viability inhibitors, primary screen, luminescence. cancer stem cell-like cells viability. 1.1% of 300,000 active. inhibition, % at 7.5 µM;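 active means mean at 75% or more and at least half the replicates too; tested in HMLE shEcad cells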;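 further: 0% = median of negative and 100% = median of positive control wells; the first replicate is given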
UUG fidelity = modulators of yeast start codon fidelity, primary screen, whole organism, S. cerevisiae, single point, plate reader | S. cerevisiae UUG-firefly luciferase reporter, luminescence/redox ratio | activity score, % at 18.7 µM | 0.13% of 350,000 active | AID 602363, 2012;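 active means replicate mean at a twofold rise or more, about +100% in these data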;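 further: firefly luciferase made from a UUG start codon reports start codon fidelity; reporter light over untreated wells divided by growth signal over untreated wells; some hits fall short of that in this replicate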
Env fusion inh = inhibitors of HIV-1 Env-driven cell-cell fusion, primary screen, HeLa-JRFL effector, CEM21 target cells, luciferase; inhibition, % at 12.3 µM; 1.1% of 360,000 active; AID 651610, 2012;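 active means mean replicate inhibition score of at least 50 and every replicate individually at or above 50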;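 further: 0% = plate neutral controls and 100% = maraviroc near 300 nM; one replicate is shown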
PABP FP inh = PABP poly(A) RNA binding inhibitors, primary screen, biochemical, fluorescence polarization, uHTS | inhibition, % at 35 µM | 1% of 290,000 active | AID 2014, 2009;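 active means 50% or more with normal probe brightness, or confirmed in later tests; about a fifth of its hits are not listed in these tables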;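 further: calls also rest on retests at 20 µM and on dose response follow-up; controls were probe without protein and protein plus probe with vehicle; some compounds called inactive have numbers as strong as hits; many hits fall short of the cut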
eIF4H FP inh = human eIF4H binding inhibitors, primary screen, translation initiation inhibitor project, biochemical, uHTS, fluorescence polarization; eIF4H fluorescence polarization binding assay; Eukaryotic translation initiation factor 4H (Homo sapiens), Q15056; 0.94% of 290,000 active; AID 2012, 2009; inhibition, % at 35 µM;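 active means 50% or more with normal probe brightness, or confirmed in later tests; about a fifth of its hits are not listed in these tables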;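 further: calls also rest on retests at 20 µM and on dose response follow-up; 0% = protein and probe with vehicle and 100% = probe without protein; strong numbers were not always called active; many hits fall short of the cut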
MT1-MMP act inh = blockers of MT1-MMP proenzyme processing, primary screen, HT1080 RFP-PRO-GFP cells, GFP/RFP fluorescence | Matrix metalloproteinase-14 (Homo sapiens), P50281 | GFP/RFP ratio fluorescence, overnight; percent of plate control window, DMSO zero | GFP/RFP ratio change, % at 20 µM | 0.061% of 360,000 active | AID 651647, 2012;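 active means GFP/RFP ratio change of at least 30% with cell ATP level not reduced by more than half and red fluorescence within 50% of control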; further: strong numbers were not always called active
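Assay system: RFP-PRO-GFP reporter HT1080 cells; read-out basis: GFP/RFP fluorescence ratio; benchmarks: DMSO wells and RFP-L50D-GFP cells; doses: 20 µM single dose, 1% DMSO; schedule: overnight cell settling, then overnight compound exposure, 37 °C, 5% CO2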
Rce1 inh = yeast Rce1p protease inhibitors, primary screen, biochemical, fluorescence, cell-free homogeneous; 0.27% of 290,000 active; AID 2563, 2010; yeast membranes, quenched prenylated peptide cleavage fluorescence; calls only; CAAX prenyl protease 2 (Saccharomyces cerevisiae (strain ATCC 204508 / S288c)), Q03530;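 active means fall in fluorescence gain of 50% or more versus controls, with final raw signal at or below 3038400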;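 further: plate controls were neutral control wells for no effect and wells lacking membranes for full effect; tested at 10 µM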
Target sequence (Q03530 whole entry, looked up): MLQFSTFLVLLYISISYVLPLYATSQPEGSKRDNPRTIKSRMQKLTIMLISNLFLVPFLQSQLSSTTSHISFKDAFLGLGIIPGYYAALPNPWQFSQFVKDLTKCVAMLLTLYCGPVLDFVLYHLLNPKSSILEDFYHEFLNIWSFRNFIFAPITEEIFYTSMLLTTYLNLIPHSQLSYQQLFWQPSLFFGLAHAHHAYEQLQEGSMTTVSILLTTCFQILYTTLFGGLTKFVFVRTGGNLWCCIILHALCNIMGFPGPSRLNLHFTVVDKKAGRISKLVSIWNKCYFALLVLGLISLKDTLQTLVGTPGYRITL
eIF4H FP inh retest = further read-out of eIF4H FP inh, marked with its call; inhibition, %; compound at 20 µM; confirmation average;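 mean of two retest wells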
PABP FP inh retest = further read-out of PABP FP inh, marked with its call; inhibition, %; compound at 20 µM; confirmation repeats;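 mean of two retest wells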
MT1-MMP act inh RFP = recorded beside MT1-MMP act inh, whose call it bears; RFP signal change, %; measured here: RFP expression control read;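 0 = vehicle wells; hits needed this value within 50% of zero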
The depositor's hits bear a star; i = inactive; . = no result given.

SMILES	CSC inhib	UUG fidelity	Env fusion inh	PABP FP inh	eIF4H FP inh	MT1-MMP act inh	MT1-MMP act inh RFP	Rce1 inh	others
CC(C)CCNC(=O)C1CC(c2ccccc2[N+](=O)[O-])=NO1 (stereo unspecified)	-1	-14	12	.	.	-2	0	i
Cc1ccc(CCN2C(=O)CCC2(C)C(=O)NCc2cccnc2)cc1 (stereo unspecified)	-7	-19	1	-2	-4	3	2	i
COc1cccc(-n2nc(-c3ccnn3-c3ccccc3)c(=O)n(C)c2=O)c1	2	-24	.	-12	-5	-2	1	i
COc1cc(C=O)cc(Cl)c1OC(=O)N1CCOCC1	-5	-6	-3	13	-3	2	0	i
Nc1nnc(SCC(=O)Nc2ccc(N3CCOCC3)c(Cl)c2)s1	-2	-21	-36	14	-9	9	-8	i
Oc1ccc(NC(=S)N=Nc2c(O)[nH]c3ccc(Br)cc23)cc1	.	-10	26	4	7	-4	-17	i
COc1cc(O)c(C(CCN2CCOCC2)c2cc(OC)c(OC)c(OC)c2)c(OC)c1 (stereo unspecified)	-5	-19	9	-4	0	2	3	i
CN(C)S(=O)(=O)c1ccc(N)c([N+](=O)[O-])c1	-11	-18	-6	0	-4	-1	1	i
C/C=C/C(=O)OCC(=O)Nc1cc(OC)c([N+](=O)[O-])cc1C	-15	.	1	2	0	-5	-2	i
CC1=CC(=O)C=C(C)C1=NOc1ccccc1[N+](=O)[O-]	-16	.	30	12	21	1	4	i
COc1cc(OC)cc(C(=O)NCc2nc(-c3ccccc3)no2)c1	-28	-4	.	-5	5	6	-3	i
COc1ccc(-c2nnc(SCC(=O)Nc3cc(C)on3)o2)cc1	-10	.	10	-2	-6	1	1	i
COc1ccccc1CNS(=O)(=O)c1c(C(=O)N2CCCC2)c(C)n(C)c1C	-9	-5	7	-3	1	3	5	i
N/C(=N\S(=O)(=O)c1cc(C(F)(F)F)cc(C(F)(F)F)c1)c1ccc(Cl)cc1	14	.	10	2	-19	2	-7	i
O=C(CSc1nc(-c2ccco2)cc(C(F)(F)F)n1)Nc1ccc2c(c1)CCC2	51	-10	.	6	4	-8	-11	i
Cc1cccc(OCCNS(=O)(=O)c2ccc(Cl)cc2)c1	-7	-21	4	.	.	-2	1	.
O=C(Nc1cccnc1)c1cc(F)cc(F)c1	-7	-29	.	9	-1	0	2	i
O=C(NC(CSSCC(NC(=O)c1ccccc1)C(=O)O)C(=O)O)c1ccccc1 (stereo unspecified)	-5	-26	.	2	-7	1	5	i
O=C(COC(=O)c1ccc(Cl)c(S(=O)(=O)N2CCCCC2)c1)NCC1CCCO1 (stereo unspecified)	-8	.	-3	0	-1	-3	-4	i
COc1ccc(NC(=O)CN(C)C(=O)CNC(=O)c2ccc3ccccc3c2)cc1	.	-9	-9	.	.	2	-1	.
COc1ccccc1OCC(=O)NNC(=O)Nc1ccc(Cl)cc1	8	.	-29	-4	-4	1	-11	i
N=C(N)SCC1=CCS(=O)(=O)C1	0	-4	-14	-6	-1	2	3	i
COc1cccc2c1Oc1ncccc1N(C(=O)CCC(=O)NCc1ccc(F)cc1)C2	2	-15	-1	1	-7	2	4	i
Cc1c(Cc2ccccc2)c(=O)oc2cc(OCC(=O)c3ccccc3)ccc12	46	.	19	0	6	-4	-14	i
O=C(Cn1cc(COc2c(F)c(F)cc(F)c2F)nn1)c1ccc(O)cc1	.	76	-12	.	.	5	1	.
C/C(=N\NC(=O)c1ccc(Cn2cc([N+](=O)[O-])cn2)o1)c1cccc(NC(=O)C(C)C)c1	.	.	-3	-2	11	2	5	i
CCn1cc(C(=O)N2CCOCC2)c(=O)c2cc(S(=O)(=O)N(C)C)ccc21	0	-11	-8	1	-10	1	4	i
c1cncc(-c2ccc3[nH]ccc3c2)c1	5	-6	-48	.	.	-1	2	.
COc1cc2c(cc1NC(=O)/C=C/c1cc(OC)c(OC)c(OC)c1)oc1ccccc12	48	-8	-4	15	0	-1	-4	i
Cc1cccnc1NC(=O)CCCN1C(=O)c2ccccc2C1=O	-5	1	.	5	-6	5	2	i
CN1CCN(C(=O)c2ccccc2NC(=O)c2ccccc2)CC1	-15	-16	8	1	11	0	7	i
CCc1nnc2c(N(C)S(=O)(=O)c3ccc(C)cc3)nc3ccccc3n12	-6	.	-3	-6	-17	3	0	i
CCn1ccnc1CN(C)C(=O)c1cc(COc2ccccc2SC)on1	-25	-21	0	4	-7	1	-2	i
COc1ccc(C2/C=C\CN(C(=O)C3CC3)CC(=O)N2Cc2ccc(F)cc2)cc1 (stereo unspecified)	1	-7	18	1	-11	-2	1	i
CC(=O)Nc1ccc(S(=O)(=O)Oc2ccc3c(c2)C(C)=CC(C)(C)N3)cc1	32	.	.	12	15	.	.	i
CC(=O)Nc1ccc(NC(=O)C2CCCN2S(=O)(=O)c2cccc3nsnc23)cc1 (stereo unspecified)	1	.	4	-7	-5	1	2	i
N/C(=N\O)c1ccc(NC(=O)c2ccc(Br)o2)cc1	0	-4	-5	3	4	10	-2	i
O=c1[nH]c(/C=C/c2ccc(Cl)cc2Cl)c([N+](=O)[O-])c(=O)[nH]1	41	-4	-3	-5	-4	-5	-7	i
O=C1CCNc2c(Cl)cccc21	-11	-11	2	13	2	-3	-1	i
O=C(Nc1nnc([C@@H]2O[C@H](CO)[C@@H](O)[C@H]2O)s1)Nc1ccccc1C(F)(F)F	.	-14	1	.	.	0	1	.

The closing 2 entries of the part above are carried over, then new ones follow.
SMILES	CSC inhib	UUG fidelity	Env fusion inh	PABP FP inh	eIF4H FP inh	MT1-MMP act inh	MT1-MMP act inh RFP	Rce1 inh	others
O=C1CCNc2c(Cl)cccc21	-11	-11	2	13	2	-3	-1	i
O=C(Nc1nnc([C@@H]2O[C@H](CO)[C@@H](O)[C@H]2O)s1)Nc1ccccc1C(F)(F)F	.	-14	1	.	.	0	1	.
O=C(Nc1ccccn1)C12CC3CC(C1)CC(C(=O)Nc1ccccn1)(C3)C2	-12	-6	10	-7	-3	-4	-8	i
COc1cccc(NC(=O)CN(C)C(=O)c2cc(-c3ccccc3)nn2-c2ccccc2)c1	-1	-15	10	.	.	-1	2	.
COc1ccc(/C=C/C(=O)OCC(=O)NCCC2=CCCCC2)cc1	-7	.	11	-5	1	-2	3	i
O=C1NC[C@@H](Cc2ccc(O)cc2)N(CCc2cccc3ccccc23)C1=O	-5	-5	-15	9	4	-4	-2	i
O=C(O)CCCn1cc(NC(=O)COc2ccc([N+](=O)[O-])cc2)cn1	-14	.	-8	38	0	-3	-1	i
CCOC(=O)c1cc2c(=O)[nH]ccc2nc1C(F)(F)F	-3	.	3	14	5	-4	-2	i
CCC(C)NC(=S)Nc1ccc2nc(N3CCN(CC)CC3)cc(C)c2c1 (stereo unspecified)	42	.	-23	2	-4	-3	-3	i
COc1ccc(C(CNC(=O)C(=O)Nc2ccc3c(c2)OCO3)N2CCN(C)CC2)cc1 (stereo unspecified)	8	-3	6	.	.	-7	-3	i
COc1cccc(NC(=O)CSc2nncn2-c2ccccn2)c1	-8	-22	-21	1	7	1	5	i
O=C(O)c1ccc2c(c1)-c1nc3ccccc3n1C2=O	-3	-13	-98	20	3	1	-2	i
CCOC(=O)c1c(NC(=O)CCC(=O)O)sc2c1CC(C)(C)OC2	-10	-10	-10	-3	-3	9	3	i
CCn1c(=O)c2c(nc3n2CC(C)CN3CCc2ccccc2)n(C)c1=O (stereo unspecified)	13	-14	-38	-5	-2	3	-5	i
Cc1ccc(S(C)(=O)=O)cc1C(=O)Nc1cccc(S(=O)(=O)N2CCCCCC2)c1	1	6	-1	.	.	-3	-4	.
CCC1=Nc2cc(C(=O)NCCN3CCCC3)ccc2Sc2ccc(C)cc21	6	8	6	.	.	-1	1	i
Cc1ccc(NC(=O)CN2c3cccc4cccc(c34)S2(=O)=O)cc1	3	-31	.	.	.	2	-2	.
O=C(N/N=C/c1ccc([N+](=O)[O-])o1)c1cc(-c2cccc(Br)c2)nc2ccccc12	5	-9	-91	8	56*	20	-13	i	eIF4H FP inh retest=62*;PABP FP inh retest=15
O=C(CN1CCC(C(=O)c2cccc(F)c2)CC1)NCc1cccs1	8	.	9	1	2	4	0	i
O=C(/C=C/c1cccs1)c1ccc(N2CCOCC2)cc1	5	-54	-30	-1	-7	-1	-1	i
Cc1ccc(C)c(-n2c(CNC(=O)c3ccco3)nnc2SCC(=O)N2CCc3ccccc32)c1	-1	-7	.	-10	3	0	-6	i
Cn1cc(CN2CCC(Oc3ccc(C(=O)N4CCCCC4)cc3)CC2)cn1	-2	-10	-1	-11	6	-2	-1	i

Of the compounds above, 4 have a CF3 group.
SMILES	CSC inhib	UUG fidelity	Env fusion inh	PABP FP inh	eIF4H FP inh	MT1-MMP act inh	MT1-MMP act inh RFP	Rce1 inh	others
N/C(=N\S(=O)(=O)c1cc(C(F)(F)F)cc(C(F)(F)F)c1)c1ccc(Cl)cc1	14	.	10	2	-19	2	-7	i
O=C(CSc1nc(-c2ccco2)cc(C(F)(F)F)n1)Nc1ccc2c(c1)CCC2	51	-10	.	6	4	-8	-11	i
O=C(Nc1nnc([C@@H]2O[C@H](CO)[C@@H](O)[C@H]2O)s1)Nc1ccccc1C(F)(F)F	.	-14	1	.	.	0	1	.
CCOC(=O)c1cc2c(=O)[nH]ccc2nc1C(F)(F)F	-3	.	3	14	5	-4	-2	i

More entries:
SMILES	CSC inhib	UUG fidelity	Env fusion inh	PABP FP inh	eIF4H FP inh	MT1-MMP act inh	MT1-MMP act inh RFP	Rce1 inh	others
CCc1cc(Cn2nc(-c3ccccc3)cc2C(=O)NCc2cccc(C(F)(F)F)c2)on1	17	-5	-24	.	.	3	-2	i
CCOc1ccc(NC(=O)Cn2nnc(C(=O)NCc3ccccc3OC)c2N)cc1	-2	-8	.	-8	-5	4	0	i
Cc1cc(C)c2c(N)c(C(=O)c3ccccc3Cl)sc2n1	-2	4	11	-12	-14	2	-3	i
CN1CCN(C(=S)C(=O)Nc2ccccc2)CC1	3	.	4	-4	-2	4	-1	i
CCOC(=O)c1nnc(-c2ccc(C)cc2)nc1Oc1ccccc1Cl	.	-9	.	-7	-3	0	0	i
O=C(c1ccc(COCC(F)(F)F)o1)N1CCCCCC1	-46	14	.	-7	-9	3	3	i
COC(=O)[C@@H]1C[C@H]2CC[C@H](O)C[C@H]2N1Cc1ccc(-c2ccccc2)cc1	1	-19	20	-12	4	-1	1	i
O=C(CSc1nc2ccccc2c(=O)n1-c1ccc(Cl)cc1)c1ccco1	0	-9	.	-10	4	3	4	i
COc1ccc(NC(=O)CSc2ccc3c(c2)OCCO3)cc1S(N)(=O)=O	-9	.	-18	.	.	4	-2	.
CCC(C)NC(=O)c1cc(OC)c(OC)c(OC)c1 (stereo unspecified)	2	.	.	3	-7	8	2	i
CC(C)CC(=O)Nc1c2c(nn1-c1ccc(F)cc1)CS(=O)C2 (stereo unspecified)	-10	-16	3	-5	-4	-5	-3	i
O=C(CCCN1CCC(c2ccccc2)C1)c1ccc2c(c1)OCCO2 (stereo unspecified)	31	-5	.	-4	-1	0	-2	i
Cc1ccc(-c2noc(CCC(=O)NCCN3CCN(Cc4ccccc4)CC3)n2)cc1	12	12	.	-2	2	.	.	i
Cc1ccc(C(C(=O)NC2CCCC2)N(Cc2ccc3c(c2)OCO3)C(=O)Cc2cccs2)cc1 (stereo unspecified)	-1	7	.	-2	5	-21	-24	i
CCc1ccccc1NC(=O)c1cnc2scc(C)n2c1=O	2	-16	-44	-8	0	5	0	i

Screening data as filed in PubChem BioAssay.
